Vaccinia stage – blocks a specific stage of Vaccinia orthopoxvirus infection, primary screen, cell-based, single point; Vaccinia-infected cells, mCherry/Venus stage reporter fluorescence; active compounds read low; some inactives read as strong as hits; activity change (mCherry), % (no concentration beside the values); 0.01% of 89,000 active; AID 1053133, 2014;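 active = mCherry past -33% and 40 or more points under the early reporter, replicates agreeing; inconclusive = past -33% without that gap or agreement; tested in A549 cells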;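 also: scaled between vehicle wells and reference inhibitor wells; 23 nL library stock went into each well; one replicate is shown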
Vaccinia stage Venus – also measured in Vaccinia stage; calls as there; activity change (Venus), %; measured here: Venus reporter, other viral stage;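 negative = less Venus signal; first of two replicates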
Numbers without * were called inactive; ? = inconclusive; · = not tested or not shown; & = joins results of further samples.

Value order – Vaccinia stage Venus, Vaccinia stage
1	OC[C@@H]1[C@@H](c2ccc(-c3cccc(F)c3)cc2)[C@@H]2CN(Cc3cncnc3)CCCCN12
  -4.3, -3.6
2	CC(=O)N(C)C[C@@H]1Oc2cc(/C=C/c3ccccc3)ccc2S(=O)(=O)N([C@H](C)CO)C[C@H]1C
  -2.5, 11.0
3	C[C@@H](O)C#Cc1ccc([C@H]2[C@H]3CN(C(=O)c4ccc(F)cc4)CCCCN3[C@H]2CO)cc1
  -1.7, 29.6
4	CN(C)C(=O)C[C@H]1CC[C@@H]2[C@H](COC[C@@H](O)CN2C(=O)C2CC2)O1
  2.2, 0.6
5	O=C(C[C@H]1CC[C@@H]2[C@H](COC[C@H](O)CN2Cc2ccc(Cl)cc2)O1)NCCc1ccccc1
  ·, ?
6	CN1CCN(C(=O)C[C@@H]2CC[C@H]3[C@@H](COC[C@H](O)CN3Cc3ccc4c(c3)OCO4)O2)CC1
  10.9, 11.3
7	Cn1cnc(S(=O)(=O)N2CC[C@@H]3[C@H]2c2cc(C#CC4CCCC4)ccc2N[C@@H]3CO)c1
  -0.3, -3.0
8	N#C[C@@H]1[C@H](c2ccc(C3=CCCC3)cc2)[C@H](CO)N1C(=O)Cc1ccncc1
  14.5, 13.7
9	C[C@H](CO)N1C[C@H](C)[C@H](CN(C)S(=O)(=O)c2cn(C)cn2)Oc2c(NC(=O)C3CCOCC3)cccc2C1=O
  1.0, 5.4
10	COc1cccc(NC(=O)N[C@H]2CC[C@@H](CC(=O)Nc3ccccc3)O[C@@H]2CO)c1
  -7.8, -11.2
11	C[C@H]1CCCCO[C@@H](CN(C)Cc2ccc(C(=O)O)cc2)[C@@H](C)CN([C@@H](C)CO)C(=O)c2cc(NC(=O)CCC(F)(F)F)ccc2O1
  16.5, 17.8
12	O=C(N[C@@H]1CC[C@@H](CCNC(=O)C2CCOCC2)O[C@@H]1CO)c1ccccn1
  6.9, 10.4
13	COc1ccccc1CN1CC[C@H]2[C@H](CO)Nc3ccc(C#Cc4ccccc4)cc3[C@H]21
  5.1, -31.8
14	O=C(C1CCOCC1)N1CC(=O)N2[C@H](CO)[C@H](c3ccc(C#CC4CCCC4)cc3)[C@H]2C1
  1.5, -6.9
15	CCC(=O)Nc1ccc2c(c1)C(=O)N(C)C[C@@H](OC)[C@@H](C)CN(C(=O)C1CCC1)[C@H](C)CO2
  1.9, -2.1
16	CS(=O)(=O)N1[C@H](C#N)[C@H](c2ccccc2-c2ccccc2)[C@H]1CO
  -12.5, -17.0
17	C[C@@H]1CN([C@H](C)CO)C(=O)c2cc(NC(=O)Nc3cccc4ccccc34)ccc2O[C@@H](C)CCCCO[C@@H]1CN(C)C(=O)C1CCCCC1
  1.6, 4.2
18	N#C[C@@H]1N[C@@H](CO)[C@@H]1c1ccc(-c2ccccc2F)cc1
  7.6, 12.5
19	O=C(C[C@H]1CC[C@@H]2[C@H](COC[C@H](O)CN2C(=O)c2cc(Cl)cc(Cl)c2)O1)N1CCc2ccccc2C1
  ·, ?
20	C[C@H]1CN([C@@H](C)CO)C(=O)c2cc(Br)cnc2O[C@@H]1CN(C)C(=O)c1ccncc1
  11.4, 27.4
21	O=C(Cc1ccccn1)N[C@@H]1C=C[C@H](CC(=O)N2CCCCC2)O[C@@H]1CO
  0.2, -12.1
22	COc1ccc2c3c([nH]c2c1)[C@H](CO)N(C(C)=O)CC31CCN(S(=O)(=O)c2cccs2)CC1
  -4.6, 3.2
23	O=C(Nc1ccccc1)N1CCCCN2[C@@H](CO)[C@@H](c3ccc(C#Cc4ccccn4)cc3)[C@@H]2C1
  -8.3, 17.3
24	O=C(C[C@H]1C[C@H]2c3cc(NS(=O)(=O)c4ccc(F)cc4)ccc3O[C@H]2[C@@H](CO)O1)NCCc1ccccc1
  4.6, 2.0
25	COCC(=O)N1C[C@H]2[C@@H](c3ccccc31)[C@@H](CO)N2C(=O)C1CCCCC1
  6.8, 3.2
26	O=C(CC1CC1)N1CC(=O)N2[C@H](CO)[C@H](c3ccc(/C=C/c4ccccc4)cc3)[C@@H]2C1
  -13.2, -10.4
27	CN(C)CC(=O)N1CCCCN2[C@H](CO)[C@H](c3ccc(-c4cccc(C(=O)N(C)C)c4)cc3)[C@@H]2C1
  5.1, 22.7
28	C[C@@H]1CCCCO[C@@H](CN(C)C(=O)C2CCCCC2)[C@H](C)CN([C@@H](C)CO)C(=O)c2cc(NC(=O)Nc3ccccc3)ccc2O1
  -13.8, -10.1
29	COc1ccc(S(=O)(=O)Nc2cccc3c2O[C@H](CN(C)S(=O)(=O)c2c(C)noc2C)[C@@H](C)CN([C@@H](C)CO)C3=O)cc1
  4.3, 3.9
30	C[C@@H]1CN([C@H](C)CO)C(=O)c2cc(NC(=O)CCCCCC(=O)Nc3ccccc3N)ccc2O[C@@H]1CN(C)Cc1ccccc1
  -24.6, -27.5
31	C[C@@H]1CN([C@H](C)CO)C(=O)c2cc(C3=CCCCC3)cnc2O[C@H]1CN(C)Cc1ccccc1
  -19.1, -34.6
32	O=C(N[C@H]1CC[C@H](CCNC(=O)c2ccccc2F)O[C@H]1CO)c1cnccn1
  11.8, 10.5
33	Cc1ccc(S(=O)(=O)Nc2ccc3c(c2)C(=O)N([C@@H](C)CO)C[C@H](C)[C@H](CN(C)Cc2ccc(C(F)(F)F)cc2)OCCCC[C@@H](C)O3)cc1
  ·, ?
34	O=C(C[C@H]1C=C[C@@H](NC(=O)C2CC2)[C@@H](CO)O1)Nc1ccccc1
  10.7, 5.0
35	CO[C@@H]1CN(C)C(=O)c2cc(NC(=O)CC(F)(F)F)ccc2OC[C@@H](C)N(CC2CC2)C[C@@H]1C
  -1.7, -2.7
36	CN1[C@H](C(=O)N2CCc3ccccc3C2)[C@@H](CO)[C@@H]2Cn3c(ccc(-c4cccnc4)c3=O)[C@@H]21
  6.2, -1.0
37	CC(C)NC(=O)N(C)C[C@H]1Oc2cc(-c3ccncc3)ccc2S(=O)(=O)N([C@@H](C)CO)C[C@@H]1C
  -1.5, 18.6
38	O=S(=O)(Cc1ccccc1)N1CC2(C1)[C@H](c1ccccc1)[C@@H](CO)N2CC1CCOCC1
  12.5, 15.1
39	C[C@H](CO)N1C[C@H](C)[C@@H](CN(C)CC2CC2)Oc2ccc(NC(=O)C3CCCCC3)cc2CC1=O
  -5.8, 3.0
40	COc1ccc(NC(=O)N(C)C[C@H]2Oc3ccc(NS(=O)(=O)c4ccc(F)cc4)cc3C(=O)N([C@@H](C)CO)C[C@H]2C)cc1
  11.3, 26.9
41	O=C(C[C@@H]1CC[C@@H](NC(=O)NC2CCCCC2)[C@@H](CO)O1)NCc1ccc(Cl)cc1
  -7.0, -8.6
42	C[C@@H]1CCCCO[C@H](CN(C)Cc2ccc(C(=O)O)cc2)[C@@H](C)CN([C@@H](C)CO)C(=O)c2cc(NC(=O)Cc3ccccc3)ccc2O1
  16.5, 29.2
43	C[C@@H]1CCCCO[C@@H](CN(C)C(=O)Nc2cccc3ccccc23)[C@@H](C)CN([C@H](C)CO)C(=O)c2cc(NC(=O)Nc3ccc4c(c3)OCO4)ccc2O1
  9.1, 25.2
44	C[C@@H]1CN([C@@H](C)CO)C(=O)c2cc(NC(=O)Nc3ccc4c(c3)OCO4)ccc2O[C@@H](C)CCCCO[C@H]1CN(C)C(=O)Cc1ccccc1
  -6.3, -0.1
45	COCC#Cc1cnc2c(c1)C(=O)N([C@@H](C)CO)C[C@@H](C)[C@H](CN(C)C(=O)c1ccc3c(c1)OCO3)O2
  11.3, 23.5
46	O=C(Nc1ccc(F)cc1)N[C@H]1CC[C@H](CC(=O)N2CCCCC2)O[C@H]1CO
  -2.3, -1.5
47	CCCNC(=O)N1CC2(CCN(C(=O)c3cccc(F)c3)CC2)c2c([nH]c3cc(OC)ccc23)[C@@H]1CO
  -0.7, 7.4
48	CN1CCN(C(=O)C[C@@H]2CC[C@H]3[C@@H](COC[C@H](O)CN3C(=O)C3CC3)O2)CC1
  3.6, -1.4
49	O=C(NCC1CC1)[C@H]1[C@H](CO)[C@H]2Cn3c(ccc(-c4cccnc4)c3=O)[C@@H]1N2Cc1nccs1
  -4.0, -7.4
50	O=C(Nc1ccc2c(c1)[C@H]1C[C@@H](CC(=O)N3CCOCC3)O[C@H](CO)[C@H]1O2)NC1CCCC1
  16.4, 18.6
51	C/C=C/c1ccc2c(c1)O[C@@H](CN(C)C(=O)CN1CCOCC1)[C@H](C)CN([C@H](C)CO)S2(=O)=O
  19.9, 31.4
52	Cc1noc(C)c1NC(=O)N(C)C[C@@H]1OCCCC[C@H](C)Oc2ccc(N(C)C)cc2C(=O)N([C@H](C)CO)C[C@H]1C
  12.7, 19.7
53	C[C@@H]1CN([C@H](C)CO)C(=O)Cc2cc(NS(=O)(=O)c3cccs3)ccc2O[C@H]1CN(C)Cc1ccc(Oc2ccccc2)cc1
  -8.9, -21.5
54	O=C(Cc1ccccn1)N[C@H]1C=C[C@@H](CC(=O)N2CCCCC2)O[C@H]1CO
  3.3, -10.7
55	O=C(Nc1ccccc1O)C1=C[C@H](c2coc3ccccc3c2=O)C[C@H](OCCCCO)O1
  -8.1, -10.4
56	COc1cccc(S(=O)(=O)N[C@@H]2C=C[C@@H](CC(=O)NC3CCC3)O[C@H]2CO)c1
  0.3, 4.7
57	CNC[C@H]1Oc2ccc(NC(=O)c3ccncc3)cc2C(=O)N([C@@H](C)CO)C[C@@H]1C
  12.5, 10.0
58	COC(=O)C[C@H]1CC[C@@H]2[C@@H](COc3ccc(NC(=O)Nc4cccc(C)c4)cc3C(=O)N2C)O1
  -3.5, -12.2
59	C[C@H](CO)N1C[C@H](C)[C@@H](CN(C)Cc2ccc(-c3ccccc3)cc2)Oc2c(NC(=O)CCCCCC(=O)Nc3ccccc3N)cccc2C1=O
  14.7, 26.2
60	C[C@@H]1CN([C@H](C)CO)S(=O)(=O)c2ccc(-c3cccc(C(=O)N(C)C)c3)cc2O[C@H]1CN(C)C(=O)Nc1ccccc1
  5.9, 8.6

Other results.
Value order – Vaccinia stage Venus, Vaccinia stage
61	CC=Cc1ccc2n(c1=O)C[C@H]1[C@H](CO)[C@@H](C(=O)N3CCc4ccccc4C3)N(C(=O)C3CC3)[C@@H]21 (mixture of isomers)
  8.7, 5.9
62	C[C@@H]1CN([C@@H](C)CO)C(=O)c2cc(NS(=O)(=O)c3cn(C)cn3)ccc2O[C@H]1CN(C)C(=O)Nc1ccc2c(c1)OCO2
  -2.9, -0.9
63	COc1ccc2c3c([nH]c2c1)[C@H](CO)N(Cc1nccs1)CC31CN(C(=O)C2CCCCC2)C1
  8.9, -3.3
64	C[C@H](CO)N1C[C@H](C)[C@H](CN(C)C(=O)CN2CCOCC2)Oc2ncc(C#CCN(C)C)cc2C1=O
  9.3, 28.0
65	COc1ccccc1-c1cnc2c(c1)C(=O)N([C@H](C)CO)C[C@@H](C)[C@H](CN(C)C(=O)CC1CC1)O2
  15.6, 13.8
66	Cc1ccccc1S(=O)(=O)NCC[C@H]1CC[C@H](NC(=O)Nc2cccc(F)c2)[C@H](CO)O1
  -9.8, -21.9
67	COCC(=O)N1C[C@@H]2[C@H](c3ccccc31)[C@H](CO)N2C(=O)C1CC1
  2.2, -3.1
68	O=C(C[C@@H]1CC[C@@H]2[C@H](COC[C@@H](O)CN2S(=O)(=O)c2cccc(Cl)c2)O1)Nc1ccccc1
  -7.9, -16.9
69	Cc1noc(C)c1S(=O)(=O)N(C)C[C@@H]1OCCCC[C@@H](C)Oc2ccc(NC(=O)NC(C)C)cc2C(=O)N([C@H](C)CO)C[C@@H]1C
  9.8, 11.5
70	CO[C@H]1CN(C)C(=O)c2cc(NC(=O)Nc3ccc(Cl)cc3)ccc2OC[C@@H](C)N(C)C[C@H]1C
  -0.1, -4.4
71	COCC(=O)NC[C@H]1[C@@H](c2ccc(C3=CCCC3)cc2)[C@H](CO)N1C(C)=O
  18.4, 0.1
72	COc1ccc(NC(=O)N(C)C[C@@H]2Oc3ncc(C#CCN(C)C)cc3C(=O)N([C@H](C)CO)C[C@@H]2C)cc1
  2.3&8.4, 3.4&9.2
73	COc1ccc2c3c([nH]c2c1)[C@H](CO)N(C(C)=O)CC31CCN(C(C)=O)CC1
  -2.0, -0.9
74	CCCN1C[C@H](C)[C@H](OC)CN(C)C(=O)c2cc(NC(=O)NC3CCCC3)ccc2OC[C@@H]1C
  13.7, 15.2
75	Cc1noc(C)c1NC(=O)Nc1ccc2c(c1)C(=O)N([C@@H](C)CO)C[C@H](C)[C@@H](CN(C)C(=O)CCCN(C)C)OCCCC[C@@H](C)O2
  12.7, 36.9
76	CO[C@H]1CN(C)C(=O)c2ccc(NS(=O)(=O)CC(F)(F)F)cc2OC[C@H](C)N(CC2CCCCC2)C[C@H]1C
  2.3, 11.7
77	CC(=O)N(C)C[C@@H]1Oc2ncc(C#Cc3cccnc3)cc2C(=O)N([C@@H](C)CO)C[C@@H]1C
  9.2, 9.2
78	CNC(=O)C[C@H]1CC[C@H]2[C@H](COc3ccc(NC(=O)Nc4ccc(Cl)cc4)cc3C(=O)N2C)O1
  4.4, 8.6
79	COCC#Cc1cnc2c(c1)C(=O)N([C@H](C)CO)C[C@H](C)[C@@H](CN(C)C(=O)Cc1cccnc1)O2
  11.2, 27.4
80	Cc1ccc(S(=O)(=O)N(C)C[C@H]2OCc3cnnn3CCCC(=O)N([C@@H](C)CO)C[C@@H]2C)cc1
  7.7, 5.9
81	COCC(=O)Nc1ccc2c(c1)C(=O)N(C)C[C@@H](OC)[C@@H](C)CN(C(=O)COC)[C@H](C)CO2
  -3.2, -1.9

4 records picked at random from those above, as already listed:
Value order – Vaccinia stage Venus, Vaccinia stage
79	COCC#Cc1cnc2c(c1)C(=O)N([C@H](C)CO)C[C@H](C)[C@@H](CN(C)C(=O)Cc1cccnc1)O2
  11.2, 27.4
62	C[C@@H]1CN([C@@H](C)CO)C(=O)c2cc(NS(=O)(=O)c3cn(C)cn3)ccc2O[C@H]1CN(C)C(=O)Nc1ccc2c(c1)OCO2
  -2.9, -0.9
73	COc1ccc2c3c([nH]c2c1)[C@H](CO)N(C(C)=O)CC31CCN(C(C)=O)CC1
  -2.0, -0.9
65	COc1ccccc1-c1cnc2c(c1)C(=O)N([C@H](C)CO)C[C@@H](C)[C@H](CN(C)C(=O)CC1CC1)O2
  15.6, 13.8

Assay outcomes deposited in PubChem BioAssay by Broad Institute.

An excerpt (hit frequency here may not be typical).
